Screens as filed in PubChem BioAssay.
Rce1 inh – yeast Ras-converting enzyme inhibition. Q03530. yeast membranes, quenched prenylated peptide cleavage fluorescence. calls only. 290,000 tested, 0.27% active. AID 2563;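 active = fall in fluorescence gain of 50% or more versus controls, with final raw signal at or below 3038400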;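 note: plate controls were neutral control wells for no effect and wells lacking membranes for full effect; tested at 10 µM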
Target sequence (Q03530 whole entry, looked up): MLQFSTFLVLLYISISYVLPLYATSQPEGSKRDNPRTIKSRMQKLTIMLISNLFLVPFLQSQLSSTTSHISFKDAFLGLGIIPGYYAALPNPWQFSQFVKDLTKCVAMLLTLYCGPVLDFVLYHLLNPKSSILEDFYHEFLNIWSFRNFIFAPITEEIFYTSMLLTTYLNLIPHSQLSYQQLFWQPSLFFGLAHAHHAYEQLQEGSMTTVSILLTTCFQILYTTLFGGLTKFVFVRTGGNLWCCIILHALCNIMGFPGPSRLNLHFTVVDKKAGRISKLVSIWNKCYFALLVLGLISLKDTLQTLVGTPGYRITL
PABP FP inh – PABP-poly(A) binding inhibition. P11940. PABP-poly(A) RNA binding, fluorescence polarization. inhibition, % at 35 µM. 290,000 tested, 1% active. AID 2014;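 active = 50% or more with normal probe brightness, or confirmed in later tests; about a fifth of its hits are not listed in these tables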;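 note: calls also rest on retests at 20 µM and on dose response follow-up; controls were probe without protein and protein plus probe with vehicle; some compounds called inactive have numbers as strong as hits; many hits fall short of the cut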
MT1-MMP act inh – blocks activation of human MT1-MMP | P50281 | AID 651647 | HT1080 RFP-PRO-GFP cells, GFP/RFP ratio fluorescence, overnight; percent of plate control window, DMSO zero | GFP/RFP ratio change, % at 20 µM | 360,000 tested, 0.061% active;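 active = GFP/RFP ratio change of at least 30% with cell ATP level not reduced by more than half and red fluorescence within 50% of control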; note: strong numbers were not always called active
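Assay system – RFP-PRO-GFP reporter HT1080 cells · Compound dosing – single dose of 20 µM compound, 1% DMSO final · Incubation – overnight compound exposure at 37 °C · Measure – GFP/RFP fluorescence ratio · Benchmarks – DMSO wells and RFP-L50D-GFP cells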
UUG fidelity – modulators of start codon recognition fidelity in yeast; S. cerevisiae UUG-firefly luciferase reporter, luminescence/redox ratio; activity score, % at 18.7 µM; 350,000 tested, 0.13% active; AID 602363;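 active = replicate mean at a twofold rise or more, about +100% in these data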;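 note: firefly luciferase made from a UUG start codon reports start codon fidelity; reporter light over untreated wells divided by growth signal over untreated wells; some hits fall short of that in this replicate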
CSC inhib – blocks cancer stem cells; 300,000 tested, 1.1% active; cancer stem cell-like cells viability, luminescence; inhibition, % at 7.5 µM;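 active = mean at 75% or more and at least half the replicates too; tested in HMLE shEcad cells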;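 note: 0% = median of negative and 100% = median of positive control wells; the first replicate is given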
eIF4H inh – inhibitors of RNA binding by human eIF4H; Q15056; eIF4H fluorescence polarization binding assay; inhibition, % at 35 µM; 290,000 tested, 0.94% active; AID 2012;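 active = 50% or more with normal probe brightness, or confirmed in later tests; about a fifth of its hits are not listed in these tables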;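 note: calls also rest on retests at 20 µM and on dose response follow-up; 0% = protein and probe with vehicle and 100% = probe without protein; strong numbers were not always called active; many hits fall short of the cut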
Env fusion inh – inhibitors of HIV Env-mediated cell fusion. HeLa-JRFL Env/CEM21 cell fusion, luciferase. inhibition, % at 12.3 µM. 360,000 tested, 1.1% active;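 active = mean replicate inhibition score of at least 50 and every replicate individually at or above 50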;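 note: 0% = plate neutral controls and 100% = maraviroc near 300 nM; one replicate is shown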
eIF4H inh retest – recorded beside eIF4H inh, whose call it bears; inhibition, %; compound at 20 µM; confirmation average;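 mean of two retest wells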
PABP FP inh retest – further read-out of PABP FP inh, marked with its call; inhibition, %; compound at 20 µM; confirmation repeats;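 mean of two retest wells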
MT1-MMP act inh RFP – further read-out of MT1-MMP act inh, marked with its call; RFP signal change, %; measured here: RFP expression control read;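 0 = vehicle wells; hits needed this value within 50% of zero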
* marks the source's active call; other numbers are inactive results; i = inactive; x = no result given; & = joins results of further samples. An excerpt (hit frequency here may not be typical).

SMILES | Rce1 inh | PABP FP inh | MT1-MMP act inh | MT1-MMP act inh RFP | UUG fidelity | CSC inhib | eIF4H inh | Env fusion inh | others
O=C(CSCc1cnn(-c2ccccc2)c1-n1cccc1)NCCN1CCOCC1 | i | 2 | x | x | -4 | -21 | 4 | x
Cc1cc(OCC(=O)O/N=C(\N)c2ccccc2)cc(C)c1Cl | x | -9 | 3 | 3 | x | -1 | -5 | x
Cc1cc(=O)cc(C)n1-c1ccc(F)cc1F | i | 18* | -4 | -5 | x | -4 | 77 | -11 | eIF4H inh retest=33;PABP FP inh retest=56*
COc1cc(/C=C2\CC/C(=C\c3cc(OC)c(OC)c(OC)c3)C2=O)cc(OC)c1OC | i | 4 | -29 | -21 | x | 4 | -6 | 37
Cc1ccc(/C=N/n2c(-c3ccco3)n[nH]c2=S)s1 | i | -17 | -2 | 0 | -9 | -2 | 4 | 7
Cc1ccc(CSCC2Nc3ccc(C(=O)N4CCN(c5ccc(F)cc5)CC4)cc3NC2=O)cc1 (stereo unspecified) | i | -10 | -47 | 6 | 4 | 3 | 35 | x
Cc1cc(C)n(Cc2ccc(Cl)cc2Cl)c(=O)c1S(=O)(=O)c1ccccc1 | i | -8 | -4 | -10 | -12 | 4 | 8 | x
Cc1cccc(COc2ncnc3nc[nH]c23)c1 | x | 1 | 3 | -2 | x | -13 | -3 | 10
CCN(CC)c1ccc(SS(=O)(=O)O)cc1 | i | 48&4 | 2&7 | 3&3 | -8&8 | 1&-6 | 42&2 | -87
Cc1cc(C(=O)OCC(=O)Nc2sc3c(c2C#N)CCC(C)C3)c2ccccc2n1 (stereo unspecified) | i | -28 | 1 | 3 | x | 6 | 34 | -6
COc1cccc(N2CCN(S(=O)(=O)c3ccc(-n4cnnn4)cc3)CC2)c1 | i | 0 | 3 | 5 | -8 | -11 | -8 | -22
COc1ccc(C)c2sc(N(CCCN(C)C)C(=O)c3ccc(S(=O)(=O)N4CCc5ccccc5C4)cc3)nc12 | i | x | 0 | -2 | -3 | -7 | x | 92*
CCCC(=O)OCC(=O)Nc1ccccc1C#N | i | 8 | -4 | -1 | -3 | -6 | 4 | 5
Cc1ccc(C(=O)Nc2ccccc2C(=O)O)cc1S(=O)(=O)NC1CCCCC1 | i | 2 | -1 | 3 | 4 | 3 | -4 | 2
O=C(c1cccs1)N(CCN1CCCCC1)CC1CCCN(C2CCCC2)C1 (stereo unspecified) | i | -2 | 4 | 3 | 22 | 4 | -2 | -21
COCc1cc(=O)n2[nH]c(SCc3ccccc3)nc2n1 | i | 12 | 1 | 5 | x | -3 | -12 | x
Cc1ccc(SCCC(=O)OCC(=O)Nc2ccc(C(N)=O)cc2)cc1 | x | x | -4 | 1 | -22 | x | x | -2
COCCNC(=O)C(c1ccc(C)o1)N(Cc1ccccc1)C(=O)Cn1nnc2ccccc21 (stereo unspecified) | i | 6 | 0 | 1 | 0 | x | 2 | -55
COc1ccc(CNc2nc(SCC(=O)NCc3ccco3)nc3ccccc23)cc1 | i | -6 | -6 | -5 | -23 | -11 | -10 | x
Cc1cc(=O)c2cc(Cl)ccc2[nH]1 | i | -9 | 3 | -2 | -4 | -2 | -3 | -25
COc1ccc(NC(=O)c2cc(C)nc3ccccc23)c(OC)c1 | i | -12 | 1 | 1 | x | -6 | 2 | 12
CCOc1ccc(S(=O)(=O)N2CCCC(C(=O)NCCN3CCOCC3)C2)cc1Cl (stereo unspecified) | i | 3 | -1 | -2 | 7 | -30 | -6 | -5
CC(=O)C(c1ccccc1)C(c1ccccc1)C(C)[N+](=O)[O-] (stereo unspecified) | i | -3 | -8 | -3 | -27 | 3 | -6 | -15
Cc1ccc2nc(NC(=O)C3CCCN(S(=O)(=O)c4cccc5nonc45)C3)sc2c1 (stereo unspecified) | i | 17 | x | x | x | 32 | 46 | x
Cc1cc(C)nc(SC(C)C(=O)O)n1 (stereo unspecified) | i | 0 | -1 | -4 | -13 | -6 | -4 | 6
CC(CS(=O)(=O)c1cccc2cccnc12)N1CCCCC1 (stereo unspecified) | i | 79* | -6 | 3 | -34 | -1 | 53* | x
CC(C)(C)OC(=O)CNC(=O)c1nc[nH]c1C(=O)NCC(=O)OC(C)(C)C | i | 10 | 1 | 0 | -22 | -17 | -8 | 1
Cc1ccc(S(=O)(=O)N(CC(=O)N/N=C/c2cccc(C)c2)c2cccc3cccnc23)cc1 | i | -11 | -17 | -18 | -27 | -2 | -8 | x
CC(C)=CCCC(C)CN1CCC(n2nccc2NC(=O)c2ccc3c(c2)OCO3)CC1 (stereo unspecified) | i | x | 3 | -1 | -21 | 9 | x | 5
COC(=O)c1ccc(CN2[C@H](C(=O)OC)C[C@@]3(O)[C@@H](O)[C@@H](O)[C@@H](O)C[C@@H]23)cc1 | i | -2 | 0 | 1 | 3 | 11 | 1 | -16
CCN(CC)C(=O)c1nc[nH]c1C(=O)N1CCc2ccccc2C1 | x | x | -15 | 14 | -7 | -12 | x | 13
CCC1S/C(=N/N=C/c2ccco2)N(Cc2ccccc2C)C1=O (stereo unspecified) | i | -8 | -2 | -5 | x | 11 | 0 | 10
CC(=O)Nc1ccc(S(=O)(=O)/N=C2\SCCN2S(=O)(=O)c2ccc(NC(C)=O)cc2)cc1 | i | x | 2 | 7 | -17 | -24 | x | -35
O=C1CC(=O)Nc2ccccc2N1 | x | x | 3 | 4 | -16 | x | x | -14
Cc1ccc(-c2nn(-c3ccccc3)cc2CNCc2ccccc2)cc1 | i | -12 | -10 | -10 | x | 73 | -5 | 18
CCC1=C(OC(=O)N(CC)CC)N2C(=O)OC(=NCC3CC3)[C@]2(Cc2ccccc2)[C@H]2C1=CC[C@H]1C(=O)N(CC)C(=O)[C@H]12 | i | 0 | -19 | -9 | 32 | 16 | 3 | -14
COc1ccc(-n2c(=S)[nH]c3ncccc3c2=O)cc1 | i | 8 | -1 | 2 | x | -14 | -1 | 6
COc1ccc(NC(=O)NNC(=O)C(C)Oc2ccc(C(C)C)cc2)c(OC)c1 (stereo unspecified) | i | 2 | -2 | 2 | -6 | 0 | 2 | 0
COC(=O)c1ccccc1NC(=O)Cn1cnc2ccc(S(=O)(=O)N3CCC(C)CC3)cc2c1=O | i | -4 | 3 | 1 | -11 | 35 | -14 | x
Nc1c(C(=O)c2ccccc2)oc2ccc(Br)cc12 | i | 7 | -3 | -4 | -5 | -3 | -6 | i

A section of the results above, for reference:
SMILES | Rce1 inh | PABP FP inh | MT1-MMP act inh | MT1-MMP act inh RFP | UUG fidelity | CSC inhib | eIF4H inh | Env fusion inh | others
COc1ccc(-n2c(=S)[nH]c3ncccc3c2=O)cc1 | i | 8 | -1 | 2 | x | -14 | -1 | 6
COc1ccc(NC(=O)NNC(=O)C(C)Oc2ccc(C(C)C)cc2)c(OC)c1 (stereo unspecified) | i | 2 | -2 | 2 | -6 | 0 | 2 | 0
COC(=O)c1ccccc1NC(=O)Cn1cnc2ccc(S(=O)(=O)N3CCC(C)CC3)cc2c1=O | i | -4 | 3 | 1 | -11 | 35 | -14 | x
Nc1c(C(=O)c2ccccc2)oc2ccc(Br)cc12 | i | 7 | -3 | -4 | -5 | -3 | -6 | i

More results:
SMILES | Rce1 inh | PABP FP inh | MT1-MMP act inh | MT1-MMP act inh RFP | UUG fidelity | CSC inhib | eIF4H inh | Env fusion inh | others
O=C(NCc1ccccc1)C1CC(=O)N(c2ccc(OCC(=O)N3CCOCC3)cc2)C1 (stereo unspecified) | i | 6 | 3 | 6 | -4 | 8 | -4 | 22
CCC(=O)N/N=c1/sc2ccccc2n1C | i | -7 | -3 | 2 | x | -1 | -2 | 15
O=C1Cc2cc(NS(=O)(=O)c3ccc([N+](=O)[O-])cc3)cc3c2N1CCC3 | i | x | 4 | -1 | -2 | 1 | x | -23
O=C(O)CC(NCc1ccco1)C(=O)OCCc1ccccc1 (stereo unspecified) | i | -2 | -1 | 5 | -17 | -18 | 2 | x
CC(=O)NC1C(OCc2ccccc2)OC2COC(c3ccccc3)OC2C1OCC(=O)O (stereo unspecified) | i | 6 | 0 | 4 | -20 | -21 | 0 | 0
COc1ccc(/C=N/NC(=O)C(C)N(c2ccc(OC)cc2)S(C)(=O)=O)cc1 (stereo unspecified) | i | 5 | 4 | 4 | x | -1 | 6 | 5
CC(=O)c1ccc(NC(=O)CSC(C)C)cc1 | i | -3 | 2 | 1 | -11 | x | -6 | x
CC(=O)OC(/C(O)=C(\C#N)c1nc2ccccc2[nH]1)c1ccccc1 (stereo unspecified) | i | 2 | 5 | 2 | -23 | 12 | 4 | x
CCCCn1nnnc1SCC(=O)Nc1ccc(C)cc1 | i | -1 | 5 | 7 | -6 | -11 | 4 | -104
NC(=O)Cn1cc(/C=N\NS(=O)(=O)c2cccc([N+](=O)[O-])c2)c2ccccc21 | i | -2 | 0 | 2 | -14 | -6 | -10 | -17
O=C(c1cc(COc2ccc(-n3cncn3)cc2)on1)N1CCCC1 | i | 7 | 2 | 1 | -20 | 21 | -1 | -36
Cn1nnnc1SCC(=O)Nc1cccc([N+](=O)[O-])c1 | i | 18 | -1 | 0 | x | -9 | 2 | 4
Cn1ncc(Br)c1C(=O)Nc1ccc(F)cc1F | i | 9 | -3 | 1 | -8 | -11 | 1 | -90
COc1ccc([C@H]2CC(=O)C=C(c3ccccc3C(F)(F)F)C2)cc1 | x | x | 1 | -1 | -17 | 42 | x | 1
CCOC(=O)c1ccc(NC(=O)CCc2nc(-c3ccccc3)no2)cc1 | i | -1 | 4 | -7 | -2 | 3 | 1 | -60
CCCC(C)NC(=O)c1nc(-c2ccccc2)n(-c2ccccc2)n1 (stereo unspecified) | i | 7 | -1 | -3 | -4 | -14 | 4 | x
O=C(O)C1Cc2ccccc2CN1C(=O)c1ccccc1 (stereo unspecified) | i | 2 | -5 | 0 | -12 | x | -4 | x
O=C(CN1CCN(S(=O)(=O)c2ccccc2[N+](=O)[O-])CC1)Nc1ccc(N2CCOCC2)cc1 | i | -11 | 5 | -2 | x | -2 | -2 | 3
COCCNC(=O)C1CCC(CNS(=O)(=O)c2ccc(F)cc2)CC1 (stereo unspecified) | i | -2 | -2 | 3 | -8 | -10 | -6 | 0
Cc1ccc(C(c2sc3nc(C)nn3c2O)N2CCN(c3ccc(F)cc3)CC2)cc1 (stereo unspecified) | i | -6 | -3 | 2 | -10 | 1 | 0 | -23
CNc1ccc([N+](=O)[O-])cc1C(=O)O | i | 3 | 3 | 0 | x | 8 | -16 | 6
O=c1[nH]c2ccc(S(=O)(=O)N3CCN(c4ccc(F)cc4)CC3)cc2o1 | i | -1 | 0 | -3 | x | -8 | -2 | -6
CC(C)(C)c1sc(N)nc1-c1ccccc1 | i | x | -8 | -6 | -11 | -10 | x | -4
CCN(Cc1cc(OC)c(OC)c(OC)c1)C(=S)Nc1cccc(SC)c1 | i | 1 | 5 | -6 | -31 | 2 | 1 | 17
CCC(=O)c1ccccc1OCCN1CCN(CC)CC1 | i | 5 | 0 | 7 | x | -4 | 4 | -3
COc1cccc(CNC(=O)COC(=O)C2CCN(c3ccc(C(F)(F)F)cn3)CC2)c1 | x | x | 1 | 2 | -1 | x | x | -1
CC(=O)NC(=S)Nc1ccc(NC(=O)c2cccnc2Cl)cc1 | i | -6 | 1 | -2 | -19 | -18 | 2 | -9
Cn1c(=O)c2c(ncn2Cc2nnc(N)s2)n(C)c1=O | i | -4 | 2 | 3 | -19 | -1 | -10 | -6
COc1cc(OC)cc(C(=O)N[C@H](C(=O)OCc2cc(=O)oc3cc(C)ccc23)C(C)C)c1 | i | -6 | -6 | -13 | -6 | 9 | -6 | 4
CC(C)CCn1c(O)c(N=NC(=O)c2ccco2)c2ccccc21 | i | 1 | 7 | 7 | x | 12 | 0 | 6
